Calb biofilm kill: clotrimazole potentiators killing C. albicans biofilm, primary screen, 4-compound mixtures. C. albicans biofilm persisters + clotrimazole, fluorescence viability; primary screen in compound mixtures of four per well. inhibition, % at 7.6 µM. hit rate 0.02% among 120,000. AID 1242, 2008;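 active = inhibition above 30.3% in the primary screen of four-compound pools, then above 30% when the compound was retested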;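 note: compounds exposed to preformed 24 h biofilms for 48 h; the number belongs to the whole pool; some results filed as inactive read as strong as hits; inactives centre near 12; 0% = biofilm with clotrimazole alone and 100% = kill control; retested singly at about 60 µM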
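Test system: C. albicans CAF4-2 wild-type biofilms; buffer or medium: RPMI/MOPS medium, pH 7.0; schedule: 24 h biofilm formation, then 48 h compound exposure, 37 °C; detection: Alamar Blue fluorescence; measure: percent inhibition of biofilm viability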
The depositor's hits bear a star. Some of the compounds tested; the hit share may differ from the screen's.

SMILES | Calb biofilm kill
C=C1CN(Cc2ccccc2)S(=O)(=O)c2ccccc21 | 6.5
COc1ccc(N2C(=O)CC(Nc3ccc(F)cc3)C2=O)c([N+](=O)[O-])c1 (centres undefined) | 14.8
CCn1c(SCC(=O)Nc2ccccc2)nc2nc3c(cc2c1=O)COC(C)(C)C3 | -2.4
CCc1ccc(CN(C)C(=O)CCc2nnc(CCc3ccccc3OC)o2)nc1 | 20.2
Cc1cccc(NC(=O)c2cnc3n(c2=O)CCS3)c1 | 7.5
COc1cccc(NC(=O)CCC(=O)Nc2cccc(OC)c2)c1 | 12.2
CCc1ccccc1NC(=O)c1cc(=O)c2ccccc2o1 | 3.1
COc1cc([N+](=O)[O-])ccc1N1C(=O)C2C3C=CC(C4CC34)C2C1=O (centres undefined) | 15.6
O=C1NC2(CCCCC2)N(C(=O)c2ccccc2)C2=C1CCCC2 | 6.2
CCN(CC)C(=O)C(=O)c1cccn1-c1c(Cl)cccc1C#N | 11.2
Cc1cc(-c2nnc3n2N=C(c2ccccc2)CS3)n[nH]1 | 17.0
CC(C)Sc1nc2ccccc2[nH]1 | 8.2

Structures listed so far that have an aryl thioether with sulfur outside any ring (two):
SMILES | Calb biofilm kill
CCn1c(SCC(=O)Nc2ccccc2)nc2nc3c(cc2c1=O)COC(C)(C)C3 | -2.4
CC(C)Sc1nc2ccccc2[nH]1 | 8.2

Further compounds
SMILES | Calb biofilm kill
CCOc1ccccc1OCCCC(=O)NC1CCCc2ccccc21 (centres undefined) | 14.0
COc1ccc(-n2cc(CNCCCN3CCCC3=O)c(-c3ccccc3Cl)n2)cc1 | 16.1
Cc1ccc(O)c(-c2cc(C(=O)NCc3ccccc3)[nH]n2)c1 | 2.5
CC(=O)c1sc(-c2ccccc2Cl)nc1C | 8.3
O=C(NCc1ccccn1)c1nn(-c2ccccc2)c(=O)c2ccccc12 | -0.5
NNC(=O)c1csc(-c2ncc(C(F)(F)F)cc2Cl)n1 | 21.4
CCOc1ccc2c(c1)/C(=C(\C(Cl)=C(Cl)Cl)[N+](=O)[O-])N2 | 15.5
O=C(CCCOc1ccc(Cl)cc1Cl)N/N=C/c1ccccc1O | -12.2
CS(=O)(=O)N(CC(=O)Nc1ccccc1)c1cccc(Cl)c1Cl | -6.1
Cc1ccc(Cl)cc1N1CCN(C(=O)C2CCC(=O)N2C(C)C)CC1 (centres undefined) | -3.5
O=C(C[n+]1cccc(O)c1)Nc1ccc(Br)cc1 | 11.2
CCN(CC)CC(=O)Nc1sc(C)c(C)c1C(=O)c1ccc(C)cc1 | 15.0
CCc1nc2c(c(=O)c3ccccc3n2C)c(=O)n1CCc1ccc(OC)cc1 | 0.1
O=C(c1ccc(Cl)c(Cl)c1)N1CCC(=O)N(C(COCc2cccc(Cl)c2)Cc2ccccc2)CC1 (centres undefined) | 19.8
O=C(CN1CCCC1)Nc1c2c(cc3c1CCC3)CCC2 | 9.7
O=C(Oc1ccc2c(c1)OCC2=O)c1ccc(Cl)cc1 | 14.9
Cc1sc2nc(SCC(=O)NCCOCCO)nc(N)c2c1C | 16.3
CCOC(=O)c1cn(CC)c2cc(Cl)c([N+](=O)[O-])cc2c1=O | 8.4
O=C(O)Cc1sc(-c2ccccc2)nc1-c1cccs1 | 11.8
Cc1cc(OCc2nnc(SC(C)C(=O)O)n2Cc2ccccc2)ccc1Cl (centres undefined) | 36.1
Cc1ccc(-n2c(SCC(=O)NCc3ccco3)nnc2-c2cccnc2)cc1 | 16.4
COc1ccc(C(=O)/C=C/c2ccc(O)cc2)cc1 | 19.8
O=Nc1c(O)n(Cc2c(Cl)cccc2Cl)c2ccccc12 | 8.0
CCCCCC(=O)NC(=S)Nc1ccc2oc(=O)ccc2c1 | 13.2

A second format for 6 compounds above:
canonical_smiles	Calb biofilm kill
Cc1ccc(-n2c(SCC(=O)NCc3ccco3)nnc2-c2cccnc2)cc1	16.4
O=Nc1c(O)n(Cc2c(Cl)cccc2Cl)c2ccccc12	8.0
O=C(Oc1ccc2c(c1)OCC2=O)c1ccc(Cl)cc1	14.9
Cc1sc2nc(SCC(=O)NCCOCCO)nc(N)c2c1C	16.3
CCOC(=O)c1cn(CC)c2cc(Cl)c([N+](=O)[O-])cc2c1=O	8.4
Cc1cc(OCc2nnc(SC(C)C(=O)O)n2Cc2ccccc2)ccc1Cl (centres undefined)	36.1

Next section
SMILES | Calb biofilm kill
COc1ccc(CNc2ncccn2)cc1OC | 13.3
CC(C)CCNC(=O)C(c1ccc(O)cc1)N(C(=O)C1COc2ccccc2O1)c1cccc(O)c1 (centres undefined) | 22.8
Cc1ccc2cccc(S(=O)(=O)N3CCCc4ccccc43)c2n1 | 7.4
C=C(C)/C=N/NC(=S)Nc1ccc(S(=O)(=O)N2CCOCC2)cc1 | 7.5
Cc1noc(C)c1C(=O)OCC(=O)N1CCN(S(=O)(=O)c2ccc3ccccc3c2)CC1 | 12.5
CC(C)c1cc(N2CCC(=O)NC2=O)cc(C(=O)O)c1O | 18.7
C=CCN(c1ccccc1)S(=O)(=O)c1cccc2cccnc12 | 17.6
COc1cc2[nH]c3c(=O)n4c(nc3c2cc1OC)SCCC4 | 24.9
COc1ccc(CNC(=O)c2ccccc2NS(C)(=O)=O)cc1 | 14.1
CSc1ccc(/C=N/Nc2nc(C)cc(C)n2)cc1 | 14.3
O=C(Nc1ccccc1Br)c1ccccc1-c1ccccc1 | 7.1
CCNc1nnc(CSc2nc3ccccc3s2)s1 | 11.2
O=C(c1ccccc1)c1cc([N+](=O)[O-])ccc1N1CCOCC1 | 20.5
Cn1cnc([N+](=O)[O-])c1Sc1nnc(-c2cccnc2)n1C | 20.6
Cc1ccccc1-c1nnc2c3ccccc3c(C)nn12 | 5.4
CCc1ccc(N(C(=O)c2snc(C(N)=O)c2N)C(C(=O)NCC2CCCO2)c2cccs2)cc1 (centres undefined) | 10.6
COc1ccc(/C=N/Nc2ncc(-c3ccccc3)cn2)c(OC)c1 | 13.0
Cn1c(SCC(=O)Nc2ccc(F)cc2)nc2c([nH]c3ccccc32)c1=O | 8.5
CCNC(=O)C(=O)Nc1ccc(OC)c(Cl)c1 | -2.7
Cc1cccc(C(=O)NNC(=O)c2ccccc2-n2cccc2)c1 | 1.7
COc1ccccc1NC(=S)N1CCn2cccc2C1c1cccnc1 (centres undefined) | 13.1
COCCNC(=O)CSCc1cc(C)cc(C)c1 | 13.2
Cc1ccc(-c2nc(C#N)c(NCC3CCCO3)o2)cc1 (centres undefined) | 14.2
C[N+]1(C)CC2=Cc3ccccc3CC2C1 (centres undefined) | 4.7
CN1CCN(c2ccc(S(=O)(=O)Nc3ccccc3)cc2[N+](=O)[O-])CC1 | 16.3
COC(=O)c1cc(CSC(=N)N)ccc1OCCC(C)C | 8.8
O=C(C(=O)N1CCc2ccccc2C1)c1cn(CC(=O)N2CCCCC2)c2ccccc12 | 7.7
COc1cc(NC(=O)CN(C)Cc2ccc(OC(F)F)cc2)c(C)cc1[N+](=O)[O-] | 18.1
COc1cc(NC(=O)CSc2nnc3c(C)cc4cc(C)cc(C)c4n23)c(C(=O)O)cc1OC | 13.3
O=C(CCNC(=O)c1ccccc1)OCC(=O)c1ccccc1 | 9.2
Cn1c(=O)[nH]c(Nc2ccc(F)cc2)c([N+](=O)[O-])c1=O | 3.9
COc1cccc(OC)c1OCCCOc1ccc([N+](=O)[O-])cc1Cl | 7.8
CCN(CC)CC(=O)Nc1ccc(/C(C)=N/NC2=NCCN2)cc1 | 10.0
CCc1ccc(/C=N/n2c(C)cc(C)c(C#N)c2=O)cc1 | 3.5
O=C(O)CSC(=S)N1CCCCC1 | -0.8
COc1ccc(/C(C)=N/OCC(=O)Nc2nc3ccccc3s2)cc1OC | 9.9

Structural class, the compounds so far containing a thiophene ring, fused or not
SMILES | Calb biofilm kill
CCN(CC)CC(=O)Nc1sc(C)c(C)c1C(=O)c1ccc(C)cc1 | 15.0
Cc1sc2nc(SCC(=O)NCCOCCO)nc(N)c2c1C | 16.3
O=C(O)Cc1sc(-c2ccccc2)nc1-c1cccs1 | 11.8
CCc1ccc(N(C(=O)c2snc(C(N)=O)c2N)C(C(=O)NCC2CCCO2)c2cccs2)cc1 (centres undefined) | 10.6

More structures.
SMILES | Calb biofilm kill
COC(=O)CCCCCCCC(=O)Nc1nnc(C(F)(F)F)s1 | 0.9
CSc1nc2ccc(NC(=O)c3ccc(F)c(F)c3)cc2s1 | 10.5
CCc1ccc2nc(SCC(=O)Nc3nnc(C)s3)c(C)cc2c1 | 13.9
Cc1ccc(C(=O)CNc2ccc(C)c(Cl)c2)cc1 | 8.6
O=C(NC1C2CC3CC(C2)CC1C3)c1ccc(N2CCNCC2)c([N+](=O)[O-])c1 (centres undefined) | 23.2
Cc1ccc(C(=O)Nc2ccccc2C(=O)O)cc1S(=O)(=O)NCc1ccccc1 | 0.7
Cc1cc(N)n(-c2ccc(S(=O)(=O)c3ccc(C(C)C)cc3)cc2)n1 | 11.3
Cc1cc(-c2nc(C)c(-c3nnc(SCC(=O)Nc4ccccc4)n3C)s2)no1 | 19.7
O=C1N=C(N2CCN(Cc3ccccc3)CC2)S/C1=C/c1cccs1 | 17.6
O=C1CC(NNc2nc3ccccc3s2)C(=O)N1c1ccc(F)cc1 (centres undefined) | 49.1
Fc1ccc(OCc2nc3ccccc3s2)cc1 | 9.8
Cc1ccc(S(=O)(=O)NCCNC(=O)c2nonc2N)cc1 | -3.0
COC(=O)/C(=N/Nc1ccc(C)cc1)N1CCCc2ccccc21 | 0.8
O=C1N=C(N2CCOCC2)S/C1=C\c1ccc(OS(=O)(=O)c2ccccc2)cc1 | 11.3
CC(C)(C)c1ccc(C(=O)N2CCC(C(=O)NCc3ccco3)CC2)cc1 | 6.4
N#C/C(=C(/O)COC(=O)c1ccc(O)cc1)c1nc2ccccc2[nH]1 | 15.6
Cn1cc(Br)c(C(=O)NC(=S)N2CCN(c3ccccn3)CC2)n1 | 8.3
CC(Cl)c1cc(-c2ncc(C(F)(F)F)cc2Cl)no1 (centres undefined) | 18.4
NC(=O)c1ccc(NC(=O)CN2CCN(c3ccc(Cl)cc3)CC2)cc1 | 14.0
COc1cccc(CN(C)C(=O)c2cc(COc3ccc4ncccc4c3)on2)c1 | 14.8
COc1ccc(OC)c(C2C(C(C)=O)=C(O)C(=O)N2CCc2ccc(OC)c(OC)c2)c1 (centres undefined) | 17.1
CCOc1cc(/C=C2\N=C3CCCCCN3C2=O)ccc1O | 19.0
CCN(CC)CCNc1nc2nonc2nc1NCCN(CC)CC | 14.7
CCCc1cc(=O)oc2cc(OCC(=O)NCc3cccs3)ccc12 | 17.2
C/C(=N\NC(=O)c1ccco1)c1cc2ccccc2o1 | 19.1
c1ccc2cc(CNCc3cccc4ccccc34)ccc2c1 | 9.2
N#C/C(=C\c1cccnc1)C(=O)Nc1cccc(Cl)c1 | 9.4
CCn1c(CNc2ccc(Cl)cc2)nnc1SCc1ccc(Cl)cc1 | 10.2
S=c1[nH]c(-c2ccccc2)cn1/N=C/c1cccs1 | 2.2
CCCn1c(SCc2nc3ccccc3s2)n[nH]c1=O | 15.2
Cn1ccc2c([N+](=O)[O-])cccc2c1=O | 6.9
COC(C[C@H]1O[C@@H]1[C@@H](O)COCc1ccccc1)OC | 20.5
CS(=O)(=O)c1ccc2nc(NC(=O)Nc3ccc(Cl)cc3)sc2c1 | 8.2
COc1ccc(-c2cc(C(F)F)n3ncc(C(=O)Nc4c(C)n(C)n(-c5ccccc5)c4=O)c3n2)cc1 | 8.9
CCOC(=O)c1c(C)[nH]c(C(=O)COC(=O)COc2ccccc2C=O)c1C | 12.5
Cc1ccccc1NC(=O)NC1CCCCC1C (centres undefined) | 11.6
Cc1ccc(Nc2nc(N)c([N+](=O)[O-])c(NCCO)n2)cc1 | 9.1
O=C(COc1ccc(Br)cc1)Nc1nnc(-c2cccnc2)s1 | 13.9
CCOC(=O)CNC(=O)CSc1nnc(C)c(=O)[nH]1 | 21.1
NNC(=O)c1cc2cc(OC(F)(F)F)ccc2[nH]1 | 6.9
Cc1ccc(CC(=O)Nc2ccc(F)c([N+](=O)[O-])c2)cc1 | 12.1
CCOC(=O)C(=N/O)/C(C)=N/NC(=O)C(=O)Nc1cc(Cl)ccc1Cl | 26.9
CC1=[N+](C)c2c(ccc3cccnc23)C1(C)C | 5.9
COC(=O)c1ccc(-c2noc(CN(Cc3nccn3C)C(C)C)n2)cc1 | 7.8
CCN1CCN(C(=O)Nc2ccc(OC)cc2OC)CC1 | 5.4
Cc1cc(/C=C2\C(=N)N3N=CSC3=NC2=O)c(C)n1Cc1ccccc1 | 13.8
Cc1cc(C)c(C)c(OCC(=O)O/N=C(\N)c2cccnc2)c1 | 5.5
O=C(NNc1nc2c(F)cc(F)cc2s1)C1COc2ccccc2O1 (centres undefined) | 13.1
CCCCn1c(=N)n(CC(=O)c2ccc(OC)cc2)c2ccccc21 | 17.4
CCN1CCCC(OC(=O)c2cc(-c3ccc(C)cc3)nc3ccccc23)C1 (centres undefined) | -2.5
O=C(Cn1c(NCCO)nc2ccccc21)c1ccccc1 | 3.3
CCOC(=O)c1c(O)c2cccc3c2n(c1=O)CC3 | -1.1
CCOc1cc(/C=C/c2cc(C(F)(F)F)[nH]c(=O)n2)ccc1O | 31.4
O=P(OC1CCCCC1)(OC1CCCCC1)C(O)c1cccnc1 (centres undefined) | 3.2
O=C(/C=C/c1ccc2c(c1)OCO2)c1ccc[nH]1 | 18.7
CC(C)(C)c1cc(C(=O)NNC(=O)Nc2ccccc2)n(Cc2ccccc2)n1 | 3.5
COc1ccc(NS(=O)(=O)c2cc(NC(=O)c3sccc3C)ccc2N2CCOCC2)cc1 | 21.6
O=C(Cn1c(=O)c(=O)n(Cc2ccccc2)c2ccc(Cl)cc21)NCC1CCCO1 (centres undefined) | 6.4
C=C(C)C(=O)Oc1ccc(N2C(=O)CCC2=O)cc1 | 15.8
COC(=O)[C@H](CCSC)NC(=O)Nc1cc(OC)cc(OC)c1 | 13.6
